High-throughput results: PubChem BioAssay, several laboratories
KCNK9 block: blocks the human KCNK9 two-pore domain potassium channel; Q9NPC2; HEK293 KCNK9, FluxOR thallium flux fluorescence; stronger effect = lower value; B-score at 10 µM; 1.2% of 310,000 active; AID 488922;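 active = ratio B-score over 3 SD below the library mean, with starting fluorescence within 5 SD of its mean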;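 also: negative B-score means less thallium flux so channel inhibition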
Target sequence (Q9NPC2 whole entry, looked up, the tested form may be a part): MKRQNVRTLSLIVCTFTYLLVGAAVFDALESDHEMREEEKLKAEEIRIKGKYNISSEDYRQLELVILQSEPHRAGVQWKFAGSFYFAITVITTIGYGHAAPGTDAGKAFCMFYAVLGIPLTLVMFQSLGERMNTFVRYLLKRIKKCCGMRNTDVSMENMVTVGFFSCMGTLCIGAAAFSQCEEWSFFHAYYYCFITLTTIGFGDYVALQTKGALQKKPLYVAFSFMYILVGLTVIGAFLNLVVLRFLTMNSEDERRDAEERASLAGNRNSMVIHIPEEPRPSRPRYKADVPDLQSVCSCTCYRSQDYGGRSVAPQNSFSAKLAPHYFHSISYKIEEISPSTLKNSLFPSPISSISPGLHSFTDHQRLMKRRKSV
GSK3B inh: inhibitors of human GSK3beta kinase; activity score (negative = inhibition), % at 10 µM; P49841; AID 2097; GST-GSK3beta kinase, ADP-Glo luminescence, 60 min; stronger effect = lower value; 0.038% of 300,000 active;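 active = more than half of replicate wells score below -50%, meaning over 50% inhibition versus plate controls; inconclusive = some replicates but at most half score below -50%; inactive = no replicate scores below -50%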;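 also: 0% = median DMSO wells and -100% = median GW8510 positive control wells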
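Test system: GST-tagged human GSK3beta kinase, cell-free; evaluation: activity score scaled between in-plate DMSO and GW8510 controls; measured by: ADP-Glo luminescence; incubation: 60 min reaction, RT; benchmarks: DMSO and 20 µM GW8510; reagent: peptide substrate plus 25 µM ATP (final); medium: Tris/MgCl2 kinase buffer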
GSK3A inh: blocks human GSK-3 alpha kinase | inhibition, % at 10 µM | ADP-Glo luminescence, 60 min | AID 2650 | 0.1% of 320,000 active;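 in the data active = inhibition above about 50%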;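 also: GST-tagged GSK-3 alpha with peptide substrate and 25 µM ATP; 0% = DMSO neutral wells and 100% = GW8510 positive control wells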
PolyA inh: blocks polyadenylation in yeast reporter cells; S. cerevisiae SKY197-pL101 polyadenylation reporter, beta-gal luminescence; efflux-impaired pdr1/pdr3 knockout yeast; score 100 = 6 SD above DMSO; calls only at 12 µM; 0.02% of 300,000 active; AID 1875;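 active = lowest replicate activity score at least 50, where 100 means six control SD above control mean; inconclusive = lowest score under 50 but half or more replicates reach 50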;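 also: yeast exposed to compound for 9 h at 30 °C; higher score means more reporter readthrough which indicates perturbed polyadenylation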
KCNQ1 inh: human KCNQ1 channel inhibition. CHO-K1 KCNQ1, FluxOR thallium flux fluorescence; stronger effect = higher value. B-score at 10 µM. 1.3% of 310,000 active. P51787. AID 2642;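 active = compounds whose thallium flux B-score, printed positive for inhibition, exceeds three library SD while starting fluorescence stays within three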;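 also: channel opened by potassium depolarization with thallium stimulus after 20 min compound exposure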
Target sequence (P51787 whole entry, looked up): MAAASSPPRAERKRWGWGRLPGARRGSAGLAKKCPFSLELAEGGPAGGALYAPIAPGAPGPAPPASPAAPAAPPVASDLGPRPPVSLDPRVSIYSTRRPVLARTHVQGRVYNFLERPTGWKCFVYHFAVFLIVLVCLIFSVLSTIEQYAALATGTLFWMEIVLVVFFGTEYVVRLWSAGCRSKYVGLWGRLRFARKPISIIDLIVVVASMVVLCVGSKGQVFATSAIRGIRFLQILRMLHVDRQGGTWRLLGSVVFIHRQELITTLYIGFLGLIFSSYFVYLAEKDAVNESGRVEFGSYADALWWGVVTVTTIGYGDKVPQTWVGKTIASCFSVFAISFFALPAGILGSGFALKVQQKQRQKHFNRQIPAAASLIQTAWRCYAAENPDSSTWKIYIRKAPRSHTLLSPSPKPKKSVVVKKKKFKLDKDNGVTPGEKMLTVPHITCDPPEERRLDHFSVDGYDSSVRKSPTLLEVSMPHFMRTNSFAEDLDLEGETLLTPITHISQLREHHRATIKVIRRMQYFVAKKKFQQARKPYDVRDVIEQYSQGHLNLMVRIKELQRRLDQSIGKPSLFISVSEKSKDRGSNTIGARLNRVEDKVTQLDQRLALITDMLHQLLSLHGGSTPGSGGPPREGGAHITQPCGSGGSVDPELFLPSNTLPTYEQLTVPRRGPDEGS
KCNK3 inh: human KCNK3 channel inhibition, primary screen; AID 602410; B-score at 10 µM; CHO-KCNK3 thallium flux, FluxOR fluorescence; stronger effect = lower value; 0.84% of 340,000 active; O14649;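 active = B-score under library mean minus 4 SD, starting fluorescence ratio at most library mean plus 5 SD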;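 also: more negative B-score means stronger inhibition of thallium flux through KCNK3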
RGS4 pot: potentiators or activators of RGS4 | HEK293 M3R/inducible RGS4, carbachol calcium flux Fluo4; stronger effect = lower value | B-score at 10 µM | 0.92% of 310,000 active | AID 463111;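 active = B-score of the integrated calcium signal more than 4 SD below the library mean, with starting fluorescence not abnormally high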;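 also: negative B-score means reduced calcium response which marks RGS4 activation or potentiation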
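test system = HEK293 cells with stable M3R and inducible RGS4 | schedule = recording 10 s baseline at 1 Hz, 100 s post-agonist | technique = Fluo4-AM (2 µM) calcium-flux fluorescence, kinetic read | measure = Agonist-evoked peak-minus-minimum fluorescence over baseline, integrated ratio, B score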
hERG protect: shields human hERG channel from block by proarrhythmic agents. 0.51% of 310,000 active. activation (rescue from dofetilide block), less the hit threshold, % at 10 µM. CHO-hERG, FluxOR thallium flux, dofetilide IC70 present. Q12809. AID 1511;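 active = activation above the mean of controls blocked by dofetilide plus 5 SD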;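 also: thallium influx through hERG after potassium depolarization seen as dye fluorescence rise; in these data hits start at about 4.7%; inactives centre near -7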
HDAC3 inhib: blocks human histone deacetylase 3; recombinant HDAC3, fluorogenic peptide/trypsin coupled, fluorescence; 0.15% of 320,000 active; inhibition, % at 8.3 µM; O15379; in the data active = inhibition above about 26%, passing the limit was not always enough; inconclusive = no clear call, values can overlap the other calls
KCNQ1 pot: human KCNQ1 channel potentiation or activation. CHO-K1 KCNQ1, thallium flux FluxOR fluorescence; stronger effect = higher value. B-score at 10 µM. 0.35% of 310,000 active. AID 2648;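 active = fluorescence ratio B-score, a plate-corrected score, at least three library SD, with initial intensity B-score within 5 SD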
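Doses: Single concentration per compound, DMSO matched to controls | Test system: KCNQ1-transfected CHO-K1 cells | Timing: 90 min dye loading and 20 min compound exposure, both at room temperature | Measured by: Kinetic FluxOR thallium fluorescence, 10-s 1-Hz baseline, 110-s post-stimulus read | Medium: Assay buffer with matched DMSO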
Numbers without * were called inactive; i = inactive; ? = inconclusive; nt = no result given. Some of the compounds tested, so the mix of outcomes need not match the whole.

SMILES	GSK3A inh	RGS4 pot	GSK3B inh	KCNQ1 inh	KCNQ1 pot	KCNK9 block	KCNK3 inh	PolyA inh	hERG protect	HDAC3 inhib
CCOc1ccc(N2C(=O)C3ON(c4ccccc4)C(c4ccco4)C3C2=O)cc1 (stereo not drawn)	5	i	1	i	i	i	i	i	-5	-1
N#Cc1c(-c2ccccc2)nc(-c2ccncc2)[nH]c1=O	nt	i	-3	i	i	i	i	i	-13	-8
COc1ccccc1N1CCN(Cc2nc3ccccc3c(=O)n2CC(C)=O)CC1	-3	i	3	i	i	i	i	i	-7	6
CCOc1ccccc1NC(=S)Nc1ccc2cn[nH]c2c1	nt	i	-13	i	i	i	i	i	-13	nt
O=S(=O)(c1ccc(F)cc1)N1CCCC(CO)C1 (stereo not drawn)	-1	i	-6	i	i	i	i	i	-5	5
C=CCNC(=O)N[C@@H](CCSC)C(=O)OC	-1	i	3	i	i	i	i	i	1	2
CC(C)CC(C(=O)N1CCOCC1)N1Cc2ccccc2C1=O (stereo not drawn)	-1	i	3	i	i	i	i	i	-18	2
CC1(C)CC(=O)C2(CC3=C(CC(C)(C)CC3=O)O2)C(=O)C1	-1	i	-2	i	i	i	i	i	-6	-5
Cc1ccc(OCCCC(=O)Nc2ccc(S(N)(=O)=O)cc2)cc1	-2	i	2	i	i	i	i	i	-6	-3
COc1ccc(/C(C)=N/NC(=O)c2ccc(NS(=O)(=O)c3cccs3)cc2)cc1	0	i	-1	i	i	i	i	i	-8	2
Cc1sc2nc(CN3CCCCC3)nc(N3CCN(C(=O)c4ccco4)CC3)c2c1C	-1	i	0	i	i	i	i	i	-9	?
O=C1C2ON(c3ccccc3)C(c3ccccn3)C2C(=O)N1c1ccc(Br)cc1 (stereo not drawn)	-2	i	-10	i	i	i	i	i	-1	6
CCC(=O)/C=C1/Sc2ccccc2N1CC	3	i	-1	i	i	i	i	i	-4	8
O=C(O)c1nccnc1C(=O)Nc1ccc(Cl)cc1Cl	-3	i	-2	i	i	i	i	i	-4	-1
CCCc1nc2sc3c(SCC(=O)NCc4ccco4)ncnc3c2c2c1CCC2	-4	i	0	i	i	i	i	i	-15	6
CC1(C)Cc2ccccc2C(/C(C#N)=N/O)=N1	-2	i	-3	i	i	i	i	i	-7	0
CCc1nc(NCCc2ccccn2)c2nnn(Cc3ccccc3F)c2n1	0	i	-3	i	i	i	i	i	-4	2
Cc1ccccc1C1=Nn2c(nnc2-c2ccco2)SC1	19	i	-9	i	i	i	i	i	-9	5
CC1(C)NC(=O)N(CCOc2cccc(Cl)c2Cl)C1=O	-2	i	0	i	i	i	i	i	-10	6
CC(=O)Nc1cc(S(=O)(=O)C(F)(F)F)ccc1Cl	-5	i	3	i	i	i	i	i	0	3

Later entries
SMILES	GSK3A inh	RGS4 pot	GSK3B inh	KCNQ1 inh	KCNQ1 pot	KCNK9 block	KCNK3 inh	PolyA inh	hERG protect	HDAC3 inhib
COc1ccc(O)c(-c2nc(N)nc(N)n2)c1	72*	nt	nt	nt	nt	nt	i	nt	nt	-7
Cc1nnc(SCC(=O)N2CCC(c3noc4ccc(F)cc34)CC2)s1	0	i	-4	i	i	i	i	i	-11	4
Cn1nccc1C(=O)Nc1ccccc1C(=O)O	18	i	-9	i	i	i	i	i	-10	-4
CN(C)c1nc(N)nc(Cn2ccnc2)n1	-4	i	2	i	i	i	i	nt	-12	-3
CCc1nc(NCCCCCO)c2nnn(Cc3ccccc3F)c2n1	nt	i	-2	i	i	i	i	i	-6	-8
CN(C)CCCN(CCCNC(=O)/C=N/O)Cc1ccccc1	-1	i	-1	i	i	i	i	i	-12	-7
Cc1ccc(-c2nc(CN(C)C3CCOCC3)c(C)o2)s1	-2	i	-1	i	i	i	i	i	-5	-5
Fc1ccc(-c2c[nH]c(=S)n2Cc2ccccc2)cc1	-4	i	11	i	i	i	i	i	-8	-2
Cc1c(N=C2NC(=O)C(CC(=O)Nc3ccccc3)S2)c(=O)n(-c2ccccc2)n1C (stereo not drawn)	-1	i	1	i	i	i	i	i	-4	6
CC1(OC(=O)c2ccco2)C(=O)C=C2C=C(C3CC3)OC=C2C1=O (stereo not drawn)	-2	i	-1	i	i	i	i	i	-11	9
COCCNC(=O)/C(C#N)=C1\N=C(N)c2ccccc21	-50	i	1	i	i	i	i	i	-2	16
O=C(O)c1cc2cccc(S(=O)(=O)N3CCOCC3)c2cc1O	6	i	-1	i	i	i	i	i	2	-1
Cc1cccc2c1nc(-c1ccccc1)n1cnnc21	3	i	2	i	i	i	i	i	-6	15
Cc1ccc2[nH]c(=O)c(-c3noc(CC(C)C)n3)cc2c1	6	i	-2	i	i	i	i	i	-5	-3
O=C(O)c1cc2ccccc2cc1Nc1ccccc1	6	i	-2	i	i	i	i	i	-10	3
CCN(CC)CCOCCOc1ccc(Cl)c2ccccc12	1	i	-3	i	i	i	i	i	-5	-1
Cc1c(C=O)c2ccccn2c1C(=O)c1ccc(F)cc1	1	i	-2	i	i	i	i	i	-14	9
COc1cccc(C2NC(=O)NC(C)=C2C(=O)Nc2cccc(C)c2C)c1 (stereo not drawn)	-2	i	-1	i	i	i	i	i	-8	1
Nc1nc(N)nc(-c2cccc(Br)c2)n1	nt	nt	nt	nt	nt	nt	i	nt	nt	nt
COC(=O)CSc1nc2cc(OC)ccc2cc1C#N	-5	i	5	i	i	i	i	i	-11	7

Carrying on:
SMILES	GSK3A inh	RGS4 pot	GSK3B inh	KCNQ1 inh	KCNQ1 pot	KCNK9 block	KCNK3 inh	PolyA inh	hERG protect	HDAC3 inhib
CCOC(=O)/C(=N\O)C1=NC(C)(C)Cc2ccccc21	8	i	1	i	i	i	i	i	-8	0
c1cncc(Nc2nc(-c3ccncc3)cs2)c1	5	i	-7	i	i	i	i	i	-9	3
CC(Sc1cnc2ccccc2n1)C(=O)O (stereo not drawn)	1	i	5	i	i	i	i	i	-8	3
CC(C)Oc1cccc(C(=O)NC(=S)Nc2ccc3c4c(cccc24)CC3)c1	-5	i	0	i	i	i	i	i	-2	5
CN1C(=O)/C(=C/c2ccc(OCc3ccc(C(=O)O)cc3)c(Cl)c2)NC1=S	0	i	nt	i	i	i	i	i	-3	-19
CN1C(=O)/C(=C/c2ccc(O)c([N+](=O)[O-])c2)NC1=S	10	i	-6	i	i	i	i	i	1	9
O=C1OCC/C1=C\c1ccc2c(c1)OCO2	14	i	-12	i	i	i	i	i	-4	1
COc1ccccc1C(=O)Nc1ccc2c(c1)OCCO2	0	i	-4	i	i	i	i	i	-9	-2
CC1(C)C=Cc2c(c3ccccc3[nH]c2=O)O1	24	i	3	i	i	i	i	i	-5	7
COC(=O)c1cccc(NC(=O)CSc2nc3cccnc3n2C)c1	0	nt	nt	nt	nt	nt	i	nt	nt	1
CC1CN(C2=N/C(=C/c3ccc4c(c3)OCO4)C(=O)N2)CC(C)O1 (stereo not drawn)	3	i	-3	i	i	i	i	i	-8	0
OC1CCN(C(c2ccc3ncccc3c2)c2nnnn2C2CCCCC2)CC1 (stereo not drawn)	0	i	4	i	i	i	i	i	-6	-1
CC1C(O)=C(c2nc3ccccc3[nH]2)C(=N)N1c1ccccc1 (stereo not drawn)	-4	i	1	i	i	i	i	i	-10	6
O=C(OCc1cc2ccccc2[nH]c1=O)C1CCCO1 (stereo not drawn)	0	i	0	i	i	i	i	i	-5	3
Cc1ccc(CNC(=O)c2cc(-c3ccccc3)nn2CC2CC(c3cccnc3)=NO2)cc1 (stereo not drawn)	-2	i	1	i	i	i	i	i	-10	0
CCC(C)C(=O)Nc1nc2ccc(OC)cc2s1 (stereo not drawn)	15	i	-12	i	i	i	i	i	-12	0
COc1ccc(OC)c(NC(=O)CSc2ccc3nnc(-c4cccnc4)n3n2)c1	-8	i	0	i	i	i	i	i	-8	-6
CCOC(=O)/C(C#N)=C\c1ccc(O)c(OC)c1	8	i	-3	i	i	i	i	i	-12	-2
Nc1ccc(C(=O)Oc2ccc([N+](=O)[O-])cc2)cc1	-4	i	-23	i	i	i	i	i	-3	nt
COc1ccc2c(c1)c1c(n2C(C)=O)C(OC(C)=O)=NCC1	-2	i	2	i	i	i	i	i	-10	-2

Next entries
SMILES	GSK3A inh	RGS4 pot	GSK3B inh	KCNQ1 inh	KCNQ1 pot	KCNK9 block	KCNK3 inh	PolyA inh	hERG protect	HDAC3 inhib
CCC(=O)/C=C1\Sc2ccccc2N1CC	2	i	0	i	i	i	i	i	-7	8
CC1(C)CC2CN(C(=O)Cc3ccccc3)C(C)(C2)C1 (stereo not drawn)	nt	i	2	i	i	i	i	i	-12	0
CN(CCC#N)Cc1cc(=O)oc2ccc3ccccc3c12	5	i	-6	i	i	i	i	i	-6	1
O=C(O)c1ccc(-n2nnnc2Oc2ccccc2C(=O)N2CCOCC2)cc1	nt	i	1	i	i	i	i	i	-1	4
COC(=O)c1ccc(C2NC(=S)N(c3ccccc3)C(C)=C2C(=O)Nc2ccccc2OC)cc1 (stereo not drawn)	-1	i	-1	i	i	i	i	i	-14	10
COc1ccc(C(=O)CC(=O)c2ccc(OC)cc2)cc1	nt	i	-8	i	i	i	i	i	2	-1
COc1ccc(N2C(=O)C(Cl)=C(N(CCO)Cc3ccccc3)C2=O)cc1	-3	i	2	i	i	i	i	i	-12	2
O=C(Cn1cnc2sc(-c3ccccc3)cc2c1=O)N1CCOCC1	2	i	6	i	i	i	i	i	-1	1
Cc1ccc(S(=O)(=O)N2CCCC2C(=O)Nc2cc(C)on2)cc1 (stereo not drawn)	1	i	-1	i	i	i	i	i	-2	-1
CC(Oc1ccc(F)cc1)C(=O)Nc1cccc(-c2nn[nH]n2)c1 (stereo not drawn)	1	i	-3	i	i	i	i	i	-8	-6
CC(=O)Nc1nc2cc(C(N)=O)ccc2s1	-3	nt	nt	nt	nt	nt	i	nt	nt	2
